PINK1 modulator – PINK1 expression modulation; PINK1 immunofluorescence, high-content cytometry, 24 h; 410,000 compounds, 0.2% hits; Potency, µM (highest dose often 76.6 µM), for inactives: at the highest dose activation (PINK1 increase), most hits filed as activators; active = well fitted activation curve with a large enough effect; inconclusive = small, poorly fitted or top-dose-only effect; inactive = flat fitted curve, though single readings scatter; cell line not stated here;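 also: potency is read from the fitted curve at half-maximal effect; % of control where 0% means no effect; nearly all actives have a fitted effect of over 65% in size; a mitochondrial uncoupler was the plate control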
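Readout is PINK1 immunofluorescence, quantified alongside mitochondrial, cell and nuclear markers by laser-scanning microplate cytometry. Cells from a stable line were exposed to compound titrations (5 concentrations) for 24 hours, with CCCP controls.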
D2 agonist – agonists of human D2 dopamine receptor (beta-arrestin) | DiscoveRx PathHunter D2 beta-arrestin, luminescence, 90 min; 100% = 57 uM dopamine signal | 360,000 compounds, 0.084% hits | activation, % (no concentration beside the values); in the data active = activation above about 40%; inconclusive = about 15% to 40%; inactive = below about 15%; also: compound concentration not given in the record; the text of the record calls up to 30% inactive
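DiscoveRx PathHunter D2 beta-arrestin cells (2,100/well) attached overnight, then compound-stimulated 90 min at 37 C in HBSS/10 mM HEPES/0.1% Tween-20 buffer; beta-galactosidase complementation read by luminescence after 1 h at ambient temperature. Dopamine 57 uM final (EC100) as control.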
TRPML1 ag – agonists of human TRPML1 channel; Q9GZU1; TRPML1-expressing cells, Ca2+ dye fluorescence, FDSS; host cell line not named in the record; reference of the full effect not given here; activation, % (test concentration not listed); 410,000 compounds, 0.12% hits; in the data active = activation above about 50%; inconclusive = about 30% to 50%; inactive = below about 30%; also: 0% is about no effect; the text of the record puts the active cut at 80%
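TRPML1-DL cells, Tet-induced overnight (~16 h, 37 degrees C), loaded 45-90 min at room temperature with Ca8 no-wash calcium dye plus quencher. FDSS fluorescence: 10 s baseline, compound pin-transfer, 110 s agonist read, then EC80 54-4 (4uM final) and 110 s antagonist read.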
D2 PAM – positive allosteric modulators of human D2 dopamine receptor. DiscoveRx D2 beta-arrestin cells, luminescence, 90 min; 100% = 57 uM dopamine signal. 360,000 compounds, 0.23% hits. potentiation, % (test concentration not listed); active = potentiation of 50% or more; inconclusive = 30% to 50%; inactive = 30% or less;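 also: compound concentration not given in the record; tested on top of an EC20 dose of dopamine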
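PathHunter beta-arrestin assay in DiscoveRx D2 cells. Compounds were added with an EC20 of dopamine (50 nM final) for 90 min at 37 deg C. Luminescence was read 1 h after detection reagent, with 57 uM dopamine as the EC100 control.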
CtBP-E1A blk – CtBP/E1A binding inhibition; activity change, % (no concentration beside the values); AID 651724; AlphaScreen GST-E1A/His-CtBP binding, 1536-well; active compounds read low; control for the full effect not named in the record; 340,000 compounds, 0.49% hits; in the data active means activity change below about -65%; inconclusive means about -30% to -65%; inactive means above about -30%; also: % is scaled to controls: 0 for no effect and ±100 for the full control effect
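In 5 uL wells, 23 nL compound meets equimolar GST-E1A and His-CtBP (5X stock 125 nM each) for 2 h, 37 °C. Beads (5X, 50 ug/mL) then 1 h, 37 °C, dark.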
Six1-Eya2 blk – inhibitors of human Six1/Eya2 interaction. activity change, % (concentration not given with the values). 360,000 compounds, 0.56% hits. AlphaScreen GST-Six1/His-Eya2 binding, biochemical; active compounds read low; control for the full effect not named in the record; in the data active = activity change below about -65%; inconclusive = about -30% to -65%; inactive = above about -30%; also: % is scaled to controls: 0 for no effect and ±100 for the full control effect
Target sequence (O00167 whole entry, looked up): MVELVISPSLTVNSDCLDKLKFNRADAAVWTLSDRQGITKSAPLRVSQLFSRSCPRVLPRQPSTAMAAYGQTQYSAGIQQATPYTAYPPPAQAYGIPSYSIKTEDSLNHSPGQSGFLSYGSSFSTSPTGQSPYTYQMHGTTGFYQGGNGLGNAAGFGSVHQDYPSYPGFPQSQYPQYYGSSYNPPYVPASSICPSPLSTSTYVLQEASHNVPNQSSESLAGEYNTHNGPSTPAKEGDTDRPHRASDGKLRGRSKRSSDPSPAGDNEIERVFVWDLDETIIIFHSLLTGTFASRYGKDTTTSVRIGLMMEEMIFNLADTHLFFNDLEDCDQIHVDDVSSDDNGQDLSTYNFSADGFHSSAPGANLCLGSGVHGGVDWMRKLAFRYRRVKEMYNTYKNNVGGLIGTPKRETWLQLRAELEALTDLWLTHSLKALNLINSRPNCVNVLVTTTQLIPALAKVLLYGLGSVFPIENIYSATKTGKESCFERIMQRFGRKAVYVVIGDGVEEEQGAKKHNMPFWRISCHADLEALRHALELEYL
Target sequence (Q15475 whole entry, looked up): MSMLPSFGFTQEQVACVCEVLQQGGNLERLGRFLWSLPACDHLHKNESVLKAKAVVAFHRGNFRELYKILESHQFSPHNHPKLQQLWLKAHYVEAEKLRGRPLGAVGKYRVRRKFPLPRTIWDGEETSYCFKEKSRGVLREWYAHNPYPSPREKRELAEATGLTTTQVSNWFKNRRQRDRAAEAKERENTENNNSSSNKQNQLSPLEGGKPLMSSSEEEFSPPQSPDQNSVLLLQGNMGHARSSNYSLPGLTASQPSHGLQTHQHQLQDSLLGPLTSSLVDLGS
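AlphaScreen luminescence read after one hour at 37 °C in darkness. Pin-transferred compounds met GST-Six1 and His-Eya2 protein (5X stock 250 nM/500 nM) plus glutathione donor and Ni-chelate acceptor beads (5X, 50 ug/mL).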
* hit, by the source's call; ? = inconclusive; · = no result given; [ ] = another dose, or the depositor's remark.

Structure	CtBP-E1A blk	PINK1 modulator	D2 PAM	TRPML1 ag	Six1-Eya2 blk	D2 agonist
COc1cc(CCC(=O)Nc2c(C(=O)N3CCN(c4ccccc4)CC3)oc3ccccc23)on1	-16	0.4%	-11	0.9	-9	-3.1
O=C(NCc1ccccc1)C1=C[C@H](C2CC2)C[C@H](OCc2ccc(CO)cc2)O1	·	2.0%	-6	0.2	-26	-1.8
COc1ccc(S(=O)(=O)Nc2ccccc2OC)cc1NC(=O)Cc1cccs1	-2	0.7%	-18	0.0	4	0.5
CC(C)C[C@@H](CNCC(=O)[C@H](Cc1c[nH]c2ccccc12)NC(=O)c1[nH]cnc1C(=O)N[C@H](CN)CC(C)C)NC(=O)c1nc[nH]c1C(=O)N[C@@H](CC(=O)O)C(=O)O	?	1.1%	-14	-0.8	-25	-3.0
CC(=O)Nc1ccc(-c2ccnc3c2CC(C(=O)NCC2CC2)O3)cc1 (configuration not stated)	2	7.0%	8	-0.8	2	6.7
O=C(NCCC1=CCCCC1)c1cc(S(=O)(=O)N2CCCCC2)ccc1Cl	6	13%	-21	2.0	-2	-2.9
CCCCN(C(C)=O)c1ccc2c(c1)C1CC2CCN1Cc1ccccc1 (configuration not stated)	-3	7.3%	-4	-0.1	-3	-6.9
O=C(Nc1ccc([N+](=O)[O-])cc1)c1ccccc1	-14	1.8%	-8	0.2	-6	-5.3
Cc1ccc(S(=O)(=O)NC2=NCCCCC2)cc1	·	1.3%	-3	-0.7	-1	0.5
CC(=O)c1ccc(N2CCN(CC(=O)Nc3ccc4c(c3)OCCO4)CC2)cc1	0	-0.6%	1	0.6	2	-8.4

Next part.
Structure	CtBP-E1A blk	PINK1 modulator	D2 PAM	TRPML1 ag	Six1-Eya2 blk	D2 agonist
CSc1nc2cc(F)c(F)cc2n1C	-1	7.5%[38.3 µM]	-9	2.9	1	-0.4
O=C1C=C(Nc2cccnc2)c2ccccc2C1=O	-11	-0.8%	58*	0.9	0	12
O=C(Cn1cccn1)N1CCCC(N2CCN(c3cccc(C(F)(F)F)c3)CC2)C1 (configuration not stated)	8	-0.8%	-35	1.2	2	-3.7
O=C(Cc1ccccc1)N1CCCC(c2nc(-c3cccs3)no2)C1 (configuration not stated)	9	13%[38.3 µM]	-7	0.6	-2	-2.0
CCOC(=O)CNC(=O)Nc1cccc(Cl)c1C	3	1.8%	-15	0.5	2	-2.4
O=C(Nc1ccc(F)cc1)c1ccc(S(=O)(=O)N2CCCC2)cc1	22	0.4%	-1	-0.3	11	0.5
CC(=O)c1ccc(Sc2ccccn2)c([N+](=O)[O-])c1	1	1.7%	-3	-0.6	4	-3.6
Cc1c(N(C(=O)c2ccccn2)C2(C(=O)NC3CCCCC3)CCCCC2)c(=O)n(-c2ccccc2)n1C	-5	0.0%	6	1.3	11	3.4
Cc1ccc(S(=O)(=O)N2CC(O)CC2C(=O)O)cc1 (configuration not stated)	3	-1.2%	-8	-0.8	7	-3.0
CC1CCC2(CC1)NC(=O)N(CC(=O)Nc1cccc(S(=O)(=O)N(C)c3ccccc3)c1)C2=O (configuration not stated)	17	0.6%	-8	0.1	-4	-0.5

Continued.
Structure	CtBP-E1A blk	PINK1 modulator	D2 PAM	TRPML1 ag	Six1-Eya2 blk	D2 agonist
CCC1(C)Cc2ccccc2-c2[nH][nH]c(=O)c21 (configuration not stated)	-13	-0.6%	-6	2.2	-1	-3.7
CC(=O)c1ccc(NC(=O)C(Cc2ccccc2)NC(=O)c2ccco2)cc1 (configuration not stated)	-2	0.0%	-17	-0.5	6	0.2
CCN(c1cccc(C)c1)S(=O)(=O)c1ccc(-c2coc(C)n2)cc1	6	2.2%	-22	0.6	0	-3.9
NS(=O)(=O)c1ccc(CCNS(=O)(=O)c2ccc3c(c2)NC(=O)CO3)cc1	3	-0.3%	-10	-0.7	0	-2.4
C[C@H](CO)N1C[C@H](C)[C@@H](CN(C)CC2CCCCC2)Oc2c(NC(=O)CCC(F)(F)F)cccc2C1=O	0	0.2%	-4	-0.4	5	-1.9
CCOC(=O)c1ccccc1NC(=O)COC(=O)C1CCN(S(=O)(=O)c2ccccc2C(=O)OC)CC1	8	1.5%	16	0.5	-5	-3.0
Cc1ccc(S(=O)(=O)N(C)C)cc1NC(=O)C(C)NC(C)c1cccs1 (configuration not stated)	-24	-1.6%	-10	2.3	18	-2.3
Fc1ccc(Nc2nc(NCc3cccs3)nc3ccsc23)cc1	4	?	-19	-1.0	-6	7.2
O=C(c1ccco1)N1CCCN(Cc2nc(-c3cccs3)no2)CC1	-4	-0.3%	-8	-0.3	-1	-1.8
Cc1nc(SCC(=O)Nc2cccc(C(=O)O)c2)n[nH]1	·	-0.8%	-7	0.3	3	-7.3

Going on with the list.
Structure	CtBP-E1A blk	PINK1 modulator	D2 PAM	TRPML1 ag	Six1-Eya2 blk	D2 agonist
CCOC(=O)c1c(CC(C)C)csc1NC(=O)COC(=O)c1cnc(C)cn1	5	-0.4%	-7	0.2	9	-1.8
COc1ccc(NC(=O)CN(C)C(=O)c2cn(-c3ccccc3)nc2-c2ccc(Cl)cc2)cc1	0	-1.3%	-19	1.1	13	-4.8
COc1ccc(CN2C(=O)c3ccccc3C2c2nnnn2-c2ccc3c(c2)OCCO3)cc1OC (configuration not stated)	-6	0.2%	·	-0.3	-5	·
CCn1c(C)nnc1SCC(=O)Nc1cccc(C(F)(F)F)c1	11	2.7%	-5	1.9	-19	4.7
CSc1nsc(SCC(=O)Nc2ccccc2)n1	0	-0.4%	-7	1.1	9	-2.2
Cc1ccc(NC2=CC(=O)C(=O)c3ccccc32)c(C)c1	·	-1.3%	4	0.9	1	0.6
CC(=O)c1cccc(NC(=O)NCCS(C)=O)c1 (configuration not stated)	3	?	-9	-0.4	2	-0.7
N#CC(C#N)=C1C=C2C=C(N3CCOCC3)CCC2CC1 (configuration not stated)	2	16µM*	14	123*	2	-3.1
CN(C(=O)Cc1c(C(=O)O)n(C)c2ccccc12)c1cccc(C(F)(F)F)c1	14	-0.1%	-5	-0.7	2	-1.3
CCCn1nnnc1NCc1ccc(F)cc1	·	1.6%	-2	0.4	4	-2.9

Remaining list, next part:
Structure	CtBP-E1A blk	PINK1 modulator	D2 PAM	TRPML1 ag	Six1-Eya2 blk	D2 agonist
Cn1c(-c2ccc3c(c2)OCO3)cnc1NCc1cccc(O)c1	-6	0.1%	-12	0.4	-14	-1.0
CCN(CC)C(=O)CSc1nc2ccc(NC(=O)CSc3nccn3C)cc2s1	10	10%[38.3 µM]	5	0.3	-1	-0.2
CC(=O)/C(C#N)=C1\NC(=O)C(Cc2ccccc2C)S1 (configuration not stated)	-11	0.2%	-5	0.3	-1	-3.1
CC1(c2ccccc2Cl)NC(=O)N(CC(=O)NCc2ccc3c(c2)OCO3)C1=O (configuration not stated)	-5	-1.3%	-3	0.0	-6	1.4
Cc1ccc(N=Cc2cc3c(cc2[N+](=O)[O-])OCO3)cc1[N+](=O)[O-]	·	1.2%	-13	-0.9	-7	-0.5
Cc1ccccc1C(=O)NC1CC(C)(C)NC(C)(C)C1	8	1.6%	-10	-0.5	4	-3.5
Cc1cc(Br)ccc1NC(=S)N1CCOCC1	10	1.3%	-13	0.1	4	0.5
Cc1cccc(N2C(=O)c3ccc(C(=O)Nc4c[nH]c(=O)[nH]c4=O)cc3C2=O)c1	3	0.6%	-6	-0.2	3	-1.8
Clc1cc(Br)ccc1NCc1cccnc1	-14	-3.3%	-10	3.4	-5	3.6
Cc1cccc(C(=O)O/N=C2/CC3CCC2(C)C3(C)C)c1 (configuration not stated)	32	11%[38.3 µM]	-11	0.3	6	-3.5

Following part:
Structure	CtBP-E1A blk	PINK1 modulator	D2 PAM	TRPML1 ag	Six1-Eya2 blk	D2 agonist
Cc1cc(Br)ccc1NC(=O)CN(C)C(=O)C1CCN(c2ncnc3sc(C)c(C)c23)CC1	-26	-6.4%	-5	1.4	?	0.4
COC(=O)c1ccc(Nc2cc(C)nc(-c3ccccc3O)n2)cc1	8	22%	18	-0.7	-4	-4.9
O=C(O/N=C(\c1ccccc1)c1ccccn1)c1cccc2ccccc12	-5	0.3%	5	1.6	2	11
Cc1ccc(C)c(SCC(=O)N(C)C2CCS(=O)(=O)C2)c1 (configuration not stated)	10	0.9%	2	0.0	12	-0.2
CCC1Nc2ncnc(N3CCN(c4ccccn4)CC3)c2N(Cc2ccc(Cl)cc2)C1=O (configuration not stated)	-24	1.6%	-49	-0.4	-25	-19
NC(=O)c1ccc[n+](CC(=O)c2ccc(Br)cc2)c1	·	-0.7%	-4	0.8	0	-2.1
O=C(COc1ccc(/C=N/NS(=O)(=O)c2ccccc2)cc1)Nc1cccc(Cl)c1	-1	-0.3%	-3	0.8	-9	-4.0
O=C1c2ccccc2CC1(Cc1ccccc1)Cc1ccccc1	26	6.4%	-3	-0.8	29	0.4
Cc1cnc(C)c(N2CCC(C(=O)NCc3ccco3)CC2)n1	7	0.2%	1	-0.9	18	-0.5
Cc1ccc(S(=O)(=O)N(CCC(=O)NCc2ccccc2F)c2ccccc2)cc1	1	-0.3%	-3	0.6	5	-4.5

Retrieved by structure from the entries so far (seven):
Structure	CtBP-E1A blk	PINK1 modulator	D2 PAM	TRPML1 ag	Six1-Eya2 blk	D2 agonist
CCn1c(C)nnc1SCC(=O)Nc1cccc(C(F)(F)F)c1	11	2.7%	-5	1.9	-19	4.7
O=C(Cn1cccn1)N1CCCC(N2CCN(c3cccc(C(F)(F)F)c3)CC2)C1 (configuration not stated)	8	-0.8%	-35	1.2	2	-3.7
CSc1nsc(SCC(=O)Nc2ccccc2)n1	0	-0.4%	-7	1.1	9	-2.2
CSc1nc2cc(F)c(F)cc2n1C	-1	7.5%[38.3 µM]	-9	2.9	1	-0.4
O=C(Cc1ccccc1)N1CCCC(c2nc(-c3cccs3)no2)C1 (configuration not stated)	9	13%[38.3 µM]	-7	0.6	-2	-2.0
Cc1ccc(S(=O)(=O)N2CC(O)CC2C(=O)O)cc1 (configuration not stated)	3	-1.2%	-8	-0.8	7	-3.0
COc1ccc(CN2C(=O)c3ccccc3C2c2nnnn2-c2ccc3c(c2)OCCO3)cc1OC (configuration not stated)	-6	0.2%	·	-0.3	-5	·

Additional records.
Structure	CtBP-E1A blk	PINK1 modulator	D2 PAM	TRPML1 ag	Six1-Eya2 blk	D2 agonist
CCN(CC)C(=O)C(=O)Nc1cccc(Br)c1	·	0.0%	-9	0.6	3	4.8
CC(C)=CCN1CCN(Cc2coc3ccc(C)cc3c2=O)CC1CCO (configuration not stated)	4	1.2%	-17	0.3	2	3.2
CCOC(=O)Cn1c(C)cc(=O)c2cccc(C)c21	1	5.5%	-24	-0.2	9	-0.9
Cc1ccc(NC(=O)c2cc(S(=O)(=O)Nc3ccc(C)cc3)cs2)cc1	2	?	-1	4.6	1	0.8
COc1cc(-c2cc3nc(NCCN(C)C)ccn3n2)cc(OC)c1OC	-3	1.9%	-15	-0.2	1	2.0
C#CCOCCOCCOCCNc1nc(N2CCOCC2)nc(N2CCN(C(=O)CCCCCCCCCCNC(=O)[C@H]([C@@H](C)CC)n3cc(CCCCN=C(N)N)nn3)CC2)n1	-9	5.1%	-21	-0.2	1	-0.7

Rows were taken by chance; overall some 1.3% were active at least once.
